Vaccinia stage – blocks a specific stage of Vaccinia orthopoxvirus infection | Vaccinia-infected cells, mCherry/Venus stage reporter fluorescence; active compounds read low; some inactives read as strong as hits | activity change (mCherry), % (test concentration not listed) | actives 0.01% (n = 89,000);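 active means mCherry past -33% and 40 or more points under the early reporter, replicates agreeing; inconclusive means past -33% without that gap or agreement; tested in A549 cells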;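 further: scaled between vehicle wells and reference inhibitor wells; 23 nL library stock went into each well; one replicate is shown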
Vaccinia stage Venus – second read-out of Vaccinia stage, no call of its own (marks repeat the call); activity change (Venus), %; measured here: Venus reporter, other viral stage;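 negative = less Venus signal; first of two replicates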
* hit, by the source's call; ? = inconclusive; . = no result given; & = joins results of further samples. An excerpt (hit frequency here may not be typical).

mol,Vaccinia stage,Vaccinia stage Venus
COc1ccc2c3c([nH]c2c1)[C@@H](CO)N(Cc1ccccc1)CC31CN(S(=O)(=O)c2ccc(C)cc2)C1,11,0
COc1cccc(-c2ccc3c(c2)O[C@@H](CN(C)C(=O)C2CCOCC2)[C@@H](C)CN([C@@H](C)CO)S3(=O)=O)c1,-6,-9
Cc1noc(C)c1NC(=O)N(C)C[C@H]1Oc2ccc(N(C)C)cc2C(=O)N([C@@H](C)CO)C[C@@H]1C,7,3
COc1ccc(CN(C)C[C@@H]2Oc3ccc(NC(=O)CCC(F)(F)F)cc3CC(=O)N([C@@H](C)CO)C[C@H]2C)cc1,-8,-8
C[C@H](CO)N1C[C@H](C)[C@@H](CN(C)C(=O)Nc2ccc(F)cc2)Oc2c(NC(=O)C3CC3)cccc2C1=O,4,0
O=C(N[C@H]1CC[C@@H](CCn2cc(-c3ccccn3)nn2)O[C@H]1CO)c1ccc(F)cc1,2,5
Cc1nn(C)cc1NC(=O)C[C@H]1CC[C@@H]2[C@@H](COc3ccc(NC(=O)c4cccc(F)c4)cc3C(=O)N2C)O1,1,7
C[C@@H]1CN([C@@H](C)CO)S(=O)(=O)c2ccc(Br)cc2O[C@H]1CN(C)C(=O)C1CCC1,26,14
O=C(NC1CCCCC1)[C@H]1[C@H](CO)[C@H]2Cn3c(cccc3=O)[C@@H]1N2Cc1cccnc1,6,7
CO[C@@H]1CN(C)C(=O)c2cc(NS(=O)(=O)c3ccc(Cl)cc3)ccc2OC[C@H](C)NC[C@H]1C,0,13
COc1ccc(S(=O)(=O)N[C@@H]2C=C[C@H](CC(=O)NCc3ccccc3F)O[C@@H]2CO)cc1,6,10
O=C(NCc1ccccc1)[C@@H]1[C@@H](CO)[C@@H]2Cn3c(cccc3=O)[C@@H]2N1Cc1ccccc1F,22,11
COc1cccc(S(=O)(=O)N[C@@H]2C=C[C@@H](CC(=O)NCc3ccccc3)O[C@@H]2CO)c1,-7,-9
CC(C)COC(=O)N(C)C[C@@H]1OCc2cnnn2CCCC(=O)N([C@H](C)CO)C[C@@H]1C,17&9,9&3
O=C(C[C@@H]1C=C[C@@H](NC(=O)Nc2ccccc2F)[C@H](CO)O1)NCc1ccccc1,2,0
C[C@H]1CN([C@@H](C)CO)C(=O)c2cc(Br)cnc2O[C@@H]1CN(C)C(=O)c1ccccn1,9,7
C[C@@H]1CCCCO[C@H](CN(C)C(=O)CCCN(C)C)[C@@H](C)CN([C@H](C)CO)C(=O)c2cc(NC(=O)C3CCCCC3)ccc2O1,1,2
C[C@@H]1CN([C@H](C)CO)C(=O)c2cc(C#CC3CC3)cnc2O[C@H]1CN(C)C(=O)Cc1ccccn1,17,2
CCS(=O)(=O)N1CC2(C1)CN(S(=O)(=O)c1ccccc1)[C@H](CO)c1c2c2ccc(OC)cc2n1C,3,10
Cc1noc(C)c1S(=O)(=O)Nc1ccc2c(c1)C(=O)N([C@@H](C)CO)C[C@@H](C)[C@H](CN(C)S(=O)(=O)c1c(C)noc1C)OCCCC[C@H](C)O2,1,-6
C[C@H](CO)N1C[C@H](C)[C@@H](CN(C)S(=O)(=O)c2cn(C)cn2)Oc2ccc(NC(=O)CCN3CCOCC3)cc2C1=O,11,4
O=C(c1ccc(F)cc1)N1CC[C@@H]2[C@H]1c1cc(-c3ccccc3F)ccc1N[C@@H]2CO,-10,-10
COCC(=O)N(C)C[C@H]1Oc2ncc(-c3ccccc3C)cc2C(=O)N([C@@H](C)CO)C[C@H]1C,14,9
Cc1noc(C)c1NC(=O)Nc1ccc2c(c1)C(=O)N([C@H](C)CO)C[C@H](C)[C@H](CN(C)C(=O)C1CCCCC1)OCCCC[C@H](C)O2,15,7

Record cards, from the list above:
Listed for `Cc1noc(C)c1NC(=O)Nc1ccc2c(c1)C(=O)N([C@H](C)CO)C[C@H](C)[C@H](CN(C)C(=O)C1CCCCC1)OCCCC[C@H](C)O2` : Vaccinia stage = 15; Vaccinia stage Venus = 7
Listed for `CCS(=O)(=O)N1CC2(C1)CN(S(=O)(=O)c1ccccc1)[C@H](CO)c1c2c2ccc(OC)cc2n1C` : Vaccinia stage = 3; Vaccinia stage Venus = 10

Next results follow.
mol,Vaccinia stage,Vaccinia stage Venus
COCC(=O)N1C[C@H](C)[C@H](OC)CN(C)C(=O)c2cc(NS(C)(=O)=O)ccc2OC[C@@H]1C,1,4
CCN(C)C[C@@H]1Oc2cc(C#CCC3CCCC3)ccc2S(=O)(=O)N([C@@H](C)CO)C[C@H]1C,-20,-11
C[C@H](CO)N1C[C@H](C)[C@@H](CN(C)S(=O)(=O)c2cccc(F)c2)Oc2cc(C#CCN(C)C)ccc2S1(=O)=O,-20,-4
O=C(C[C@H]1C[C@@H]2c3cc(NC(=O)Cc4ccncc4)ccc3O[C@@H]2[C@H](CO)O1)NCc1cccnc1,?,.
C[C@@H]1CN([C@@H](C)CO)C(=O)c2cc(Br)cnc2O[C@@H]1CN(C)C(=O)C1CCOCC1,20,23
CN(C)C(=O)C[C@@H]1CC[C@H]2[C@@H](COC[C@H](O)CN2CC2CC2)O1,4,12
O=C(C[C@H]1CC[C@@H](NC(=O)Nc2ccc3c(c2)OCO3)[C@@H](CO)O1)NCc1ccc(F)cc1,5,1
C[C@H]1CN([C@@H](C)CO)C(=O)c2cccc(NC(=O)Nc3ccc4c(c3)OCO4)c2O[C@@H]1CN(C)Cc1ccc(C(F)(F)F)cc1,1,-2
O=C(C[C@@H]1CC[C@@H](NS(=O)(=O)c2ccccc2F)[C@H](CO)O1)NCCCN1CCOCC1,13,12
C[C@@H]1CN([C@H](C)CO)C(=O)Cc2cc(NS(=O)(=O)c3cn(C)cn3)ccc2O[C@H]1CN(C)Cc1ccc(C(F)(F)F)cc1,5,3
Cc1noc(C)c1NC(=O)N[C@H]1CC[C@@H](CC(=O)N2CCCCC2)O[C@@H]1CO,0,1
C[C@H](CO)N1C[C@H](C)[C@@H](CN(C)C(=O)OCc2ccccc2)OCc2cnnn2CCCC1=O,7,5
C[C@@H]1CN([C@H](C)CO)C(=O)c2cc(-c3ccccc3F)cnc2O[C@@H]1CN(C)C,4,8
CCCC(=O)Nc1ccc2c(c1)C(=O)N(C)C[C@H](OC)[C@H](C)CN(C)[C@@H](C)CO2,7,1
COc1ccccc1C#Cc1ccc([C@@H]2[C@@H](CO)N3CCCCN(C(=O)C4CCCC4)C[C@H]23)cc1,?,.
Cc1noc(C)c1NC(=O)Nc1ccc2c(c1)C(=O)N([C@H](C)CO)C[C@H](C)[C@H](CN(C)Cc1ccc(C(F)(F)F)cc1)O2,-2,-6
COc1ccc(CN(C)C[C@@H]2Oc3ccc(NS(=O)(=O)c4cn(C)cn4)cc3C(=O)N([C@@H](C)CO)C[C@H]2C)cc1,13,5
C[C@@H]1CN([C@@H](C)CO)C(=O)c2cc(C#CCc3ccccc3)cnc2O[C@@H]1CN(C)Cc1cccnc1,18,8
CCCN(C)C[C@H]1Oc2ncc(C#Cc3ccc(OC)cc3)cc2C(=O)N([C@H](C)CO)C[C@H]1C,4,-5
Cc1noc(C)c1NC(=O)N(C)C[C@H]1OCCCC[C@H](C)Oc2ccc(NS(=O)(=O)c3ccccc3)cc2C(=O)N([C@@H](C)CO)C[C@H]1C,26,7
CC(C)NC(=O)N(C)C[C@H]1Oc2ccc(NC(=O)Nc3ccc(C(F)(F)F)cc3)cc2C(=O)N([C@H](C)CO)C[C@@H]1C,19,11
C[C@H](CO)N1C[C@H](C)[C@@H](CN(C)Cc2ccc(C(=O)O)cc2)Oc2ncc(-c3ccccc3)cc2C1=O,17,8
COc1ccc(CNC(=O)C[C@H]2C=C[C@H](NC(=O)c3cccc(F)c3)[C@@H](CO)O2)cc1,5,9
O=C(CCN1CCCCC1)N[C@@H]1CC[C@@H](CCNC(=O)c2cc(Cl)cc(Cl)c2)O[C@H]1CO,-6,-6
Cc1noc(C)c1NC(=O)N(C)C[C@@H]1Oc2ccc(NC(=O)Nc3cccc4ccccc34)cc2CC(=O)N([C@@H](C)CO)C[C@@H]1C,7,8
C[C@H](CO)N1C[C@H](C)[C@@H](CN(C)Cc2ccc(-c3ccccc3)cc2)Oc2ccc(NC(=O)C3CCCCC3)cc2CC1=O,-11,-4
C[C@@H]1CN([C@H](C)CO)C(=O)c2cc(NC(=O)CCC(F)(F)F)ccc2O[C@@H](C)CCCCO[C@@H]1CN(C)C,-6,-6
CN(C)CCCNC(=O)[C@@H]1[C@@H](CO)[C@@H]2Cn3c(ccc(-c4cccc(F)c4)c3=O)[C@H]1N2,8,17
CCCC(=O)Nc1ccc2c(c1)C(=O)N(C)[C@@H]1CC[C@@H](CC(=O)NCc3ccccc3)O[C@H]1CO2,16,14
CN1C(=O)c2cc(NC(=O)c3ccc(F)c(F)c3)ccc2OC[C@H]2O[C@H](CC(=O)N[C@@H]3CCN(Cc4ccccc4)C3)CC[C@H]21,?,.
C[C@@H]1CCCCO[C@H](CN(C)Cc2ccc3c(c2)OCO3)[C@@H](C)CN([C@H](C)CO)C(=O)c2cc(NC(=O)Nc3ccc(F)cc3)ccc2O1,-33,-21
Cc1ccccc1S(=O)(=O)N1[C@H](CO)[C@@H](c2ccc(-c3ccccc3)cc2)[C@@H]1C#N,3,0
O=C(Cc1ccncc1)NCC[C@H]1CC[C@@H](NS(=O)(=O)c2ccccc2Cl)[C@@H](CO)O1,-4,7
COc1ccc2c3c(n(C)c2c1)[C@@H](CO)N(Cc1ccccn1)CC31CN(C(=O)NC(C)C)C1,5,7
C[C@@H]1CN([C@H](C)CO)C(=O)c2c(c3ccccc3n2C)-c2ccccc2CO[C@@H]1CN(C)S(C)(=O)=O,22,12
O=C1CNC[C@H]2[C@@H](c3ccc(C#CC4CCCC4)cc3)[C@@H](CO)N12,12,15
C[C@@H]1CCCCO[C@@H](CN(C)C(=O)Nc2cccc3ccccc23)[C@H](C)CN([C@H](C)CO)C(=O)c2cc(NC(=O)NC3CCCCC3)ccc2O1,-23,-14
C[C@H](CO)N1C[C@H](C)[C@@H](CN(C)Cc2ccc(Cl)c(Cl)c2)Oc2ccc(NS(=O)(=O)c3ccccc3)cc2C1=O,-11,-15
COc1ccc(NC(=O)Nc2ccc3c(c2)OC[C@H](C)NC[C@H](C)[C@@H](OC)CN(C)C3=O)cc1,8,4
CN(C)C(=O)C[C@H]1C[C@@H]2c3cc(NS(=O)(=O)c4ccccc4)ccc3O[C@@H]2[C@@H](CO)O1,4,9
CO[C@H]1CN(C)C(=O)c2cc(NC(=O)C3CCCCC3)ccc2OC[C@@H](C)N(C)C[C@@H]1C,4,10
C[C@@H]1CN([C@@H](C)CO)C(=O)c2cc(C3=CCCCC3)cnc2O[C@@H]1CN(C)C(=O)Nc1ccc(F)cc1,-27,-30
O=S(=O)(c1cccc(F)c1)N1CCN(Cc2cccc(OCCO)c2)CC1,3,2
CN1C(=O)c2cc(NC(=O)C3CCOCC3)ccc2OC[C@H]2O[C@@H](CC(=O)NCC3CC3)CC[C@H]21,0,0
C[C@@H]1CN([C@H](C)CO)C(=O)c2cccc(NC(=O)c3ccc(-c4nccs4)cc3)c2O[C@H]1CN(C)C,28,10
Cc1ccccc1S(=O)(=O)N1CC(=O)N2[C@H](CO)[C@H](c3ccc(C#CCN(C)C)cc3)[C@H]2C1,13,-3
COc1ccc(C#Cc2ccc([C@@H]3[C@@H](CO)N4CCCCN(C)C[C@H]34)cc2)cc1,?,.
C/C=C/c1ccc([C@H]2[C@@H](C#N)N(c3nc(CC)cs3)[C@H]2CO)cc1,-23,-16

3 compounds from above, arranged by molecular weight, descending:
mol,Vaccinia stage,Vaccinia stage Venus
CO[C@H]1CN(C)C(=O)c2cc(NC(=O)C3CCCCC3)ccc2OC[C@@H](C)N(C)C[C@@H]1C,4,10
O=S(=O)(c1cccc(F)c1)N1CCN(Cc2cccc(OCCO)c2)CC1,3,2
COc1ccc(C#Cc2ccc([C@@H]3[C@@H](CO)N4CCCCN(C)C[C@H]34)cc2)cc1,?,.

Remaining list, next part.
mol,Vaccinia stage,Vaccinia stage Venus
CC(=O)N1[C@H](CO)[C@H](c2ccccc2)C12CN(C(=O)Cc1ccccc1)C2,4,5
CC(C)C(=O)Nc1ccc2c(c1)C(=O)N(C)[C@H]1CC[C@@H](CC(=O)NCCCN(C)C)O[C@@H]1CO2,4,4
COCC(=O)Nc1ccc2c(c1)OC[C@@H](C)N(C(=O)Cc1ccccn1)C[C@@H](C)[C@@H](OC)CN(C)C2=O,3,6
C[C@H]1CN([C@@H](C)CO)S(=O)(=O)c2ccc(-c3ccc(F)cc3)cc2O[C@H]1CN(C)C(=O)C1CCCCC1,?,.
COc1cccc(-c2ccc([C@@H]3[C@H]4CN(S(=O)(=O)c5cn(C)cn5)CCCCN4[C@H]3CO)cc2)c1,-3,-8
CCC(=O)N1CC(=O)N2[C@H](C1)[C@@H](c1ccc(C#CCC(C)C)cc1)[C@@H]2CO,-8,-8
CO[C@@H]1CN(C)C(=O)c2cc(NC(=O)C3CC3)ccc2OC[C@@H](C)N(Cc2cncnc2)C[C@@H]1C,3,3

Bioassay records: PubChem BioAssay, Broad Institute
